# CBX7 inh = CBX7 chromodomain binding inhibitors, primary screen, biochemical, AlphaScreen; AlphaScreen His6-CBX7 / biotin-H3K27me3 peptide binding; stronger effect = lower value; 66,000 compounds, 1.1% hits; AID 1224903, 2016; normalised signal (fraction of DMSO) (test concentration not listed); in the data active = normalised signal below about 0.5;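 note: 100 nL library stock added to about 20 µL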
# Target sequence (O95931 whole entry, looked up): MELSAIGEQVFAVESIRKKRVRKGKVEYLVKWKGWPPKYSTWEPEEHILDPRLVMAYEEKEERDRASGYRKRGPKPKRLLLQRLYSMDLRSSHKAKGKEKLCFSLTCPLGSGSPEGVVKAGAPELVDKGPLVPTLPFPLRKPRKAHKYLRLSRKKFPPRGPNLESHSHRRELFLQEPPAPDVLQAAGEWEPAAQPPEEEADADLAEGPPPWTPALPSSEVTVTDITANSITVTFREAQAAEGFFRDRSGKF
# CBX7 inh z-score = further read-out of CBX7 inh, marked with its call; z-score; measured here: z-score of CBX7 signal; some inactives read as strong as hits; reference of the scale not given here;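 same signal on another scale; lower means less binding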
# * = called active by the depositor.
structure,CBX7 inh,CBX7 inh z-score
COCCCNC(=O)c1cc(=O)n(Cc2ccc(Cl)cc2)c2ccccc12,0.96,-0.47
COc1cc2nc(/C=C\c3ccc(F)cc3)n(-c3cccc(C(F)(F)F)c3)c(=O)c2cc1OC,1,0.27
Cc1nc2cc(NC(=O)c3ccc(S(=O)(=O)N(C)C4CCCCC4)cc3)ccc2s1,1,0.24
COc1ccc(NC(=O)C(=O)NCCc2ccccc2)cc1OC,1.1,1.7
COc1cccc(C2=NOC(C(=O)NC3CCCC3)C2)c1 (stereo not drawn),1,0.1
Cc1ccccc1-c1nc(CSCC(=O)N2CCCc3ccccc32)c(C)o1,0.63,-3.7
O=C(CN1C(=O)CCSc2ccccc21)NC1CCCCCC1,1,1.6
CCC1CCCCN1CCCNC(=O)c1cc(-c2cccnc2)nc2ccccc12 (stereo not drawn),1.1,0.98
COc1ccccc1-n1cnc2cc(Nc3nnc(C)c4ccccc34)ccc21,1,0.96
O=C(CN1CCN(Cc2ccc(F)cc2Cl)C1=O)NCCCN1CCCC1=O,0.87,-1.8

# Carrying on.
structure,CBX7 inh,CBX7 inh z-score
O=C(NCCN1CCCCCC1)c1cc2c(s1)-c1ccccc1OC2,1.9,12
Cc1ccc(NC(=O)c2cc(-c3cccs3)nc3ccccc23)cc1F,1.1,2.4
O=C(Nc1ccc2oc(-c3cccnc3)nc2c1)c1ccc(Br)cc1,1,0.051
CCOC(=O)c1ccc2nc(C)cc(Nc3cc(Cl)ccc3OC)c2c1,0.94,-0.075
Cc1ccc(CNC(=O)Cc2ccc(NC3=NC4CS(=O)(=O)CC4S3)cc2)cc1 (stereo not drawn),0.84,-1.7
Cc1ccc(OCC(O)Cn2c(=N)n(C)c3ccccc32)cc1 (stereo not drawn),1.1,0.41
O=c1[nH]c2ccccc2cc1/C=c1/sc2nc3ccccc3n2c1=O,0.88,-1.8
COc1ccc(Cl)cc1NC(=O)Cn1cnc2sc(C)cc2c1=O,1,1.2
Cc1oc(-c2cccc(Cl)c2)nc1CN1CCCC(C(=O)NCc2ccccc2)C1 (stereo not drawn),0.98,-0.66
CCCCCn1c(C(C)NC(C)=O)nc2ccccc21 (stereo not drawn),1.1,0.97

# Continuation:
structure,CBX7 inh,CBX7 inh z-score
CN(C(=O)Cc1c(C(=O)O)[nH]c2ccc(Cl)cc12)c1ccccc1,1.2,2.1
CC(C)OCCCNC(=O)Cn1ncc2ccsc2c1=O,1,0.47
CCCCN(CCCC)CCNC(=O)C1CCN(Cc2nc(-c3ccc(Cl)cc3)oc2C)CC1,2,8.1
CC1CCCCC1NC(=O)c1ccc2c(c1)N(Cc1ccccc1)C(=O)CS2 (stereo not drawn),0.97,-0.46
Cc1ccc(-c2csc(NC(=O)c3cccc(C(F)(F)F)c3)n2)c(C)c1,1,0.2
COc1ccc(-c2nc(-c3ccc(Cl)cc3)sc2CC(=O)O)cc1,1.1,0.34
COc1ccc(OC)c(CNC(=O)CCN2C(=O)COc3ccccc32)c1,1,0.93
Cc1cc(C)nc(Nc2ncc(O)n2-c2cccc(Cl)c2)n1,0.93,-0.44
CCCCCCC1CCC(c2ccc(C#N)cn2)CC1 (stereo not drawn),1.3,2.6
COc1ccccc1NS(=O)(=O)c1ccc2c(c1)CC(C)N2C(C)=O (stereo not drawn),0.85,-0.62

# Later entries
structure,CBX7 inh,CBX7 inh z-score
COc1ccc(N2CCN(CCNC(=O)C3CC(=O)N(C4CCCC4)C3)CC2)cc1 (stereo not drawn),0.97,-1.1
COc1ccc(-c2noc(CCC(=O)N(C)c3ccc(C)c(C)c3)n2)cc1,0.97,-0.84
O=S(=O)(NCc1ccc(Cl)cc1)c1cnc[nH]1,1.1,0.18
Cc1c(C(=O)NCCCN2CCOCC2)oc2ccc(S(=O)(=O)N3CC(C)CC(C)C3)cc12 (stereo not drawn),1.1,0.41
COc1ccc(-c2cc(C(=O)N(C)Cc3ccccc3)no2)cc1OC,0.89,-1.2
Clc1cccc(-c2nc3ccccn3c2Nc2ccc3c(c2)OCCO3)c1,0.73,-10
O=C(CC(Nc1ccc2ccccc2c1)c1ccncc1)c1ccc(Br)cc1 (stereo not drawn),0.84,-4.6
CCCS(=O)(=O)N1CCCC(C(=O)NCCCN(CC)c2cccc(C)c2)C1 (stereo not drawn),0.78,-4.3
O=C(CN1CCCCC1)Nc1c(C(=O)c2ccc(F)cc2)oc2ccccc12,0.93,-0.95
Cc1ccc(-n2c(Cc3cccn3C)nnc2SCC(=O)Nc2ccccc2)cc1,0.8,-4.7

# Looked up above:
# `COc1ccc(OC)c(CNC(=O)CCN2C(=O)COc3ccccc32)c1` in CBX7 inh is entered as 1
# `CCCS(=O)(=O)N1CCCC(C(=O)NCCCN(CC)c2cccc(C)c2)C1` (stereo not drawn) in CBX7 inh z-score is entered as -4.3
# `Cc1cc(C)nc(Nc2ncc(O)n2-c2cccc(Cl)c2)n1` in CBX7 inh z-score is entered as -0.44
# `COc1ccccc1-n1cnc2cc(Nc3nnc(C)c4ccccc34)ccc21` in CBX7 inh is entered as 1
# `COc1ccc(-c2noc(CCC(=O)N(C)c3ccc(C)c(C)c3)n2)cc1` in CBX7 inh is entered as 0.97

# Following part.
structure,CBX7 inh,CBX7 inh z-score
COCCn1cc(C(=O)O)c2c3ccccc3n(C)c2c1=O,0.98,-0.23
COc1ccc(-c2cc3nc(C)c(CCC(=O)Nc4ccc(Cl)c(C)c4)c(C)n3n2)c(OC)c1,1,0.41
COc1ccc(-c2nc(CSCC(=O)NC3CCN(Cc4ccccc4)CC3)c(C)o2)cc1OC,0.93,-0.93
Cc1c(C(=O)N2CCN(c3ccccc3F)CC2)sc2ncnc(N3CCC(C)CC3)c12,1,-0.0016
CCOC(=O)c1c(NC(=O)c2cccnc2)sc2c1CCCCC2,1.1,1
CC1CN(S(=O)(=O)c2cccc(-c3cn4cccnc4n3)c2)CC(C)O1 (stereo not drawn),0.96,-1.1
CCCCSCCCNC(=O)c1cc(Nc2ccc(OCC)cc2)nc2ccccc12,1,0.2
CC(C)CN(CC(C)C)S(=O)(=O)c1ccc2c(c1)CCN2C(=O)C1CCC1,1.1,3.3
CCC(=O)N1CCc2cc(S(=O)(=O)NC(C(=O)N3CCCC(C)C3)C(C)C)ccc21 (stereo not drawn),0.86,-2.4
CCc1ccc2nc(N3CCC(C(=O)NCCN4CCOCC4)CC3)sc2c1,1.2,0.43

# Other compounds.
structure,CBX7 inh,CBX7 inh z-score
Cc1cccc(Nc2nc(-c3ccccc3Cl)c3cc(Br)ccc3n2)c1,1.5,8.5
O=C(CSc1nnc(CNC(=O)c2ccccc2F)o1)Nc1ccc(Br)cc1,1,0.44
COc1ccc(-c2noc(-c3cc(C)cc(C)c3)n2)cc1OC,1.2,3.6
CCc1nnc(NC(=O)c2cccc(S(=O)(=O)N3CCCCCC3)c2)s1,0.98,-0.026
O=C(NCCN1CCN(c2cccc(Cl)c2)CC1)C1CCCN(S(=O)(=O)c2cnc[nH]2)C1 (stereo not drawn),0.99,-0.12
CC(=O)N1CCc2cc(S(=O)(=O)NC(C(=O)O)C(C)C)ccc21 (stereo not drawn),1,1.2
CCOC(=O)c1ccccc1NC(=O)c1c(-c2ccccc2)noc1C,1.1,0.58
CCOc1ccc(-n2ccnc2SCC(=O)Nc2cccc(Cl)c2)cc1,0.44*,-0.74*
COc1ccc(C2(C)CCc3oc4ccc(Cl)cc4c3-c3oc(C)cc32)cc1 (stereo not drawn),0.94,-1.4
CC1=C(c2ccc(C)cc2)S(=O)(=O)N=C1N1CCCCC1,0.95,-1.3

# As a short view, some entries already given:
structure,CBX7 inh,CBX7 inh z-score
Cc1cccc(Nc2nc(-c3ccccc3Cl)c3cc(Br)ccc3n2)c1,1.5,8.5
O=C(CSc1nnc(CNC(=O)c2ccccc2F)o1)Nc1ccc(Br)cc1,1,0.44
COc1ccc(-c2noc(-c3cc(C)cc(C)c3)n2)cc1OC,1.2,3.6

# Continuation:
structure,CBX7 inh,CBX7 inh z-score
CCOc1ccc(C(=O)Nc2c(C(=O)c3ccccc3)oc3ccccc23)cc1,1.1,0.37
CCC(C)Nc1nc2c(cc1C#N)COC(C)(C)C2 (stereo not drawn),1,-0.066
Cc1cccc(Cc2cnc(NC(=O)C(c3ccccc3)c3ccccc3)s2)c1,0.94,-1.2
COc1cc(-c2nc(-c3ccc(C)c(C)c3)c(-c3ccccc3)[nH]2)cc2c1OCO2,0.7,-10
O=C(Nc1nnc(COc2ccc(Cl)cc2)s1)c1cccc(S(=O)(=O)N2CCOCC2)c1,1,-0.0072
CSc1cccc(Nc2cc(C(=O)NCCN3CCCC3)c3ccccc3n2)c1,1.2,0.24
CCOc1ccc2nc(N3CCCC(C(=O)NC(C)CC)C3)sc2c1 (stereo not drawn),1.1,2.4
Cc1ccccc1NC(=O)C(c1ccccc1)N1CC(=O)Nc2ccccc21 (stereo not drawn),1.1,0.44
Cc1sc2ncn(CC(=O)NCc3ccc(F)cc3)c(=O)c2c1S(=O)(=O)N1CCC(C)CC1,1.3,3
O=C(Nc1ccc(F)cc1)C1CC2c3ccccc3C1c1ccccc12 (stereo not drawn),1,0.15

# The listing continues.
structure,CBX7 inh,CBX7 inh z-score
Cc1ccc(-c2nn(C)c(=O)c3ccccc23)cc1CNC(=O)NC1CCCCC1,1.1,0.82
CCc1ccc(NC(=O)C(NS(=O)(=O)c2cccs2)C(C)C)cc1 (stereo not drawn),1,0.29
Cc1cccc(CN2C(=O)c3ccccc3S(=O)(=O)c3ccc(C(=O)NCCN(C)C)cc32)c1,1.1,2
CCOC(=O)c1cc(-c2ccccc2)n(CC(=O)Nc2ccc(C)c(F)c2)c1C,0.92,-2.1
COc1ccc(NC(=O)CCc2c(C)nc3ncnn3c2C)cc1OC,1,0.65
COCCNC(=O)C1CCCN(Cc2nc(-c3ccccc3C)oc2C)C1 (stereo not drawn),1,0.065
CCC(C)NC(=O)c1ccc(CNc2c(NC3CCCC3)c(=O)c2=O)cc1 (stereo not drawn),1.1,0.89
Cc1ccc(S(=O)(=O)c2nc(C)oc2NCc2ccccc2)cc1,1,-0.1
O=C(NC1CCCCC1)c1cc(=O)[nH]c2ccc(Br)cc12,0.8,-2.2
Cc1ccc(-c2n[nH]c(=O)c3ccccc23)cc1S(=O)(=O)N(C)C,1,1.1

# Next results.
structure,CBX7 inh,CBX7 inh z-score
CN(C)CCCNc1nc(-c2ccc(Cl)cc2)nc2ccccc12,1.1,3.5
Cc1cccc(-c2nc(CN3CCCC(C(=O)NC(C)C)C3)c(C)o2)c1 (stereo not drawn),0.91,-1.7
Cc1cccc(C(=O)NCCc2nc3ccccc3n2CC(C)C)c1,1.2,1.3
Cc1ccc(NC(=O)C(Cc2ccccc2)NS(=O)(=O)c2cccs2)cc1Cl (stereo not drawn),0.98,-0.77
Cn1nc(-c2ccc(Cl)cc2)c2cc(C(=O)Nc3ccc4c(c3)OCO4)sc21,1.1,0.58
Cc1ccccc1OCC(=O)Nc1nc2ccccc2n1CCN1CCOCC1,0.54,-4.5
O=C1CC(N2CCN(Cc3ccc4c(c3)OCO4)CC2)C(=O)N1c1ccc(OC(F)(F)F)cc1 (stereo not drawn),1.1,1.3
CCCOc1ccc(C(=O)Nc2ccc(-c3nc4cc(C)ccc4o3)cc2)cc1,1,0.32
Cc1ccccc1Cc1c(C)nc2c(C(=O)NCCc3ccccc3)cnn2c1C,0.97,-0.81
COc1ccc(NCc2nc3ccccc3n2Cc2ccccc2F)cc1,0.7,-8.4

# More structures:
structure,CBX7 inh,CBX7 inh z-score
CCOc1ccccc1C(=O)Nc1c(-c2ccc(OC)c(OC)c2)nc2cc(C)ccn12,1.1,0.6
COc1ccc(Nc2cc(C(=O)NCC3CCCO3)c3ccccc3n2)cc1 (stereo not drawn),0.71,-3.4
CCN(CCNC(=O)CN1CCN(Cc2ccc(C)cc2)C1=O)c1ccccc1,0.82,-3.3
COc1ccc(Cc2nc3ccccc3[nH]c2=O)cc1Br,0.95,-1.2
COc1ccc(Cl)cc1N1CC(c2nc3ccccc3[nH]2)CC1=O (stereo not drawn),1.1,0.46
Fc1ccc(Nc2nc(-c3ccc(I)cc3)cs2)cc1,0.71,-4.5
Cc1ccc(-n2c3c(cc(C(=O)Nc4ccc(C)cc4C)c2=O)C(=O)CC(C)(C)C3)cc1,1,0.91
Clc1ccc(OCCCc2nc(-c3ccncc3)no2)c(Cl)c1,1,0.021
COc1ccc(Cn2c(CCC(=O)N3CCOCC3)nc3cccnc32)cc1,1,0.51
Cc1cc(C)c(S(=O)(=O)Nc2ccc3[nH]c(=O)[nH]c3c2)c(C)c1,1,1.1

# Random excerpt: 4 entries already listed.
structure,CBX7 inh,CBX7 inh z-score
CCOC(=O)c1c(NC(=O)c2cccnc2)sc2c1CCCCC2,1.1,1
COc1ccccc1-n1cnc2cc(Nc3nnc(C)c4ccccc34)ccc21,1,0.96
Fc1ccc(Nc2nc(-c3ccc(I)cc3)cs2)cc1,0.71,-4.5
CC(C)OCCCNC(=O)Cn1ncc2ccsc2c1=O,1,0.47

# Further compounds follow.
structure,CBX7 inh,CBX7 inh z-score
CCOc1ccc(-n2c(Cc3cc(=O)[nH]c(=O)[nH]3)nnc2SCc2ccc(C)cc2)cc1,1.1,2.3
COc1ccc(-n2c(Cc3cc(=O)[nH]c(=O)[nH]3)nnc2SCC(=O)Nc2cccc(C)c2)cc1,0.86,-2.1
COc1ccc(NC(=O)c2nn(-c3ccc(OC)cc3OC)c(=O)c3ccccc23)c(OC)c1,0.91,-1.8
Cc1cc(N2CCN(C)CC2)nc2ccc(NC(=O)CCC(=O)NC(C)C)cc12,1.1,0.94
CCCC1=Nc2cc(C(=O)NCCc3ccc(OC)cc3OC)ccc2Sc2ccccc21,0.84,-8.3
Cc1ccc(-n2nc3ccc(NC(=O)COc4ccccc4)cc3n2)cc1C,0.79,-3.9
Cn1cnc(S(=O)(=O)Nc2ccc(Cl)cc2)c1,1,0.54
CCN(c1ccc2c(c1)OCO2)S(=O)(=O)c1ccc2c(c1)CCC(=O)N2,1.1,2.6
COc1ccc(-n2nc3c(c2NC(=O)c2ccc(C)c(C)c2)CS(=O)(=O)C3)cc1,0.87,-1.5
Cc1cccc(OCc2nc(-c3ccc(NC(=O)c4cccs4)cc3)no2)c1,1.2,2.2

# Source: PubChem BioAssay

# An excerpt; count on the stated rates, not on these rows.
